Assay outcomes deposited in PubChem BioAssay by several laboratories.
UCH37 inh – inhibitors of human UCH37 deubiquitinase, primary screen, biochemical, Ub-AMC cleavage, fluorescence | Ubiquitin carboxyl-terminal hydrolase isozyme L5 (Homo sapiens), Q9Y5K5 | purified proteasome/UCH37 | inhibition, % (test concentration not listed) | 0.33% of 330,000 active | AID 588478, 2011;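 active = mean of two replicates above 20%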;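 also: 0% = compound-free wells with enzyme and 100% = wells lacking proteasome; stock transfer was 100 nL into about 20 µL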
Target sequence (Q9Y5K5 whole entry, looked up): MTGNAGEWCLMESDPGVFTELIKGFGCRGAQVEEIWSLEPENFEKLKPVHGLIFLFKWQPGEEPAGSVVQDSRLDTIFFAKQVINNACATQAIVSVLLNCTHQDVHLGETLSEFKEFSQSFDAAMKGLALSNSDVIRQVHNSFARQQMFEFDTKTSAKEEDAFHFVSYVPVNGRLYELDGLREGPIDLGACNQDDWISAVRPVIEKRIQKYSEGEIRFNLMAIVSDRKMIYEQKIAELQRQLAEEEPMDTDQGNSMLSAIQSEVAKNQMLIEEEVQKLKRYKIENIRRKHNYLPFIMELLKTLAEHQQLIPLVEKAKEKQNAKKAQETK
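Material: Human UCH37 enzyme supplied as purified proteasome complex | Schedule: 30 min preincubation with enzyme, 25 min cleavage at room temperature | Detection: AMC fluorescence 355/460 nm | Measure: % inhibition of Ub-AMC cleavage fluorescence | Controls: Wells without proteasome as full block, compound-free enzyme plus substrate as uninhibited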
Ecoli growth – E. coli growth inhibition, primary screen, OD600. OD600 absorbance (test concentration not listed). 0.21% of 330,000 active. Escherichia coli growth, 23 h; stronger effect = lower value;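 active = OD600 absorbance below the run mean of sample wells minus 3.6 SD, in any replicate, cut at about 0.56 in these data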;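 also: stock transfer was 300 nL into about 60 µL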
Beta2AR agonist – beta2AR agonists driving receptor internalization, primary screen, cell-based, FAP fluorogen, flow cytometry; 0.43% of 340,000 active; response, % (concentration not given with the values); Beta-2 adrenergic receptor (Homo sapiens), P07550; Am2.2-beta2AR cells; reference of the scale not given here;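 active = response above a set limit, near 3 SD of response in nonfluorescent compounds, cut at about 42% in these data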;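 also: stock transfer was 100 nL into about 11 µL; a reference agonist was the positive control; negative values mostly stem from fluorescent compounds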
HNF4A DNA FP – change in binding of human HNF4A to DNA, primary screen, biochemical, fluorescence polarization, FITC-DNA | AID 1224865, 2016 | 1 h | 0.3% of 360,000 active | activity change, % at 10 µM; in the data active = activity change above about 30%, passing the limit was not always enough;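 also: controls were the assay level and a saturating level of protein; the project sought stronger binding though the title names inhibitors; some compounds called inactive have numbers as strong as hits; positive values seem to mean higher polarization but the record does not say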
Target sequence (P41235 whole entry, looked up): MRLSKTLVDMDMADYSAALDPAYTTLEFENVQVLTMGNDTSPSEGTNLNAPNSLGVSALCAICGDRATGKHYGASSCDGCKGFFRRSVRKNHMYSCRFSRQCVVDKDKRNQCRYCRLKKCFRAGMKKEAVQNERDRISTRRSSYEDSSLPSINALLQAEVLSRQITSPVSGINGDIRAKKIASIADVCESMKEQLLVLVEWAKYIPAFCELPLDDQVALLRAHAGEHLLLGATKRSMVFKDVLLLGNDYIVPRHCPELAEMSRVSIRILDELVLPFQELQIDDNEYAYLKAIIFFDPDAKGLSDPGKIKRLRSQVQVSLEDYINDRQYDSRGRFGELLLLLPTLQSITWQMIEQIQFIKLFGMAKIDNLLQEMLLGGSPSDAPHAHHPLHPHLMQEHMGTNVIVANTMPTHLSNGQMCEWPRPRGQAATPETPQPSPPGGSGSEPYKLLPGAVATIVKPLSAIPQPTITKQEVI
LANA-H2A inh – blockers of LANA interaction with H2A/H2B – biochemical, FP readout, HTS, primary screen; cell-free LANA-H2A/H2B peptide, fluorescence polarization; inhibition, % (concentration not given with the values); 0.6% of 320,000 active; AID 2629, 2010; in the data active = inhibition mostly above about 10%, no sharp cut-off; inactive = mostly below about 6.7%;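 also: stock transfer was 7.5 nL into about 10 µL; 0% = median of vehicle wells and 100% = median of positive control wells; one replicate is shown; the record names a cut of 25% in any replicate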
Vif TR-FRET – inhibitors of Vif binding to APOBEC3G peptide, primary screen, biochemical, TR-FRET, GST-Vif 1-94, biotin-A3G peptide, dose response retest (AID 1117319); Virion infectivity factor (Human immunodeficiency virus type 1 group M subtype B (isolate …; TR-FRET GST-Vif / biotin-A3G peptide binding; higher % means a stronger effect; test concentration not given here; strong numbers were not always called active; one-dose inhibition, %; IC50 in µM for titrated hits; 0.57% of 260,000 active;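 active = above the screen mean plus three standard deviations and confirmed in dose response; inconclusive = results disagree or hit not tested in dose response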;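 also: Vif residues 1-94 fused to GST binding biotinylated APOBEC3G peptide 110-148; 0% = full assay without inhibitor and 100% = GST in place of GST-Vif; retest series ran down from 100 µM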
Bfl-1 A1 inh – caspase 3/7 activation in MEF A1-2A-BIM cells, primary screen, A1 inhibitor project, cell-based, luminescence, HTS. 0.066% of 330,000 active. caspase activation, % (no concentration beside the values). Caspase-Glo 3/7 luminescence, 3 h; percent of clofoctol response, vehicle zero;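 active = over half of replicate activation scores above 10%, or exactly half above 10 with the replicate mean above 10; inconclusive = replicate mean below 10 yet half the replicates above 10; inactive = over half of replicates below 10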;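 also: wells of about 30 µL received 50 nL stock; many hits fall short of the cut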
Active calls of the source: *; i = inactive; ? = inconclusive; · = no result given.

SMILES	UCH37 inh	Ecoli growth	Beta2AR agonist	HNF4A DNA FP	LANA-H2A inh	Vif TR-FRET	Bfl-1 A1 inh
CCCC1=NN(C(=O)CCc2ccccc2O)C(O)(C(F)(F)F)C1 (stereo unspecified)	1.2	0.69	0	-1.4	3.6	·	-1.5
COc1cc(OC)cc(C(=O)Nc2ncn[nH]2)c1	-2.8	0.71	-1	1.7	2.1	·	0.3
CC(=O)Nc1ccc2c(c1)c1ccccc1n2C(C)=O	-19	0.69	-9	-2.4	-0.6	·	0.0
CNC(=O)CN(c1cccc2ccccc12)S(C)(=O)=O	1.1	0.71	1	1.2	7.3	22%	0.7
COc1cccc2cc(C(=O)Nc3ccccc3C)/c(=N/O)oc12	·	·	12	-1.2	2.3	-6%	-1.2
CC(C)Oc1ccc(C2C(C#N)=C(N)Oc3c2oc(CO)cc3=O)cc1 (stereo unspecified)	2.5	0.7	-3	2.1	-2.5	·	-0.6
COc1cc(-c2nc3ccccn3c2NCC2CCCO2)ccc1O (stereo unspecified)	-438	0.71	-16	1.2	2.7	-1%	-4.0
COC(=O)C1=NN(c2ccccc2)C2(S1)SC(C(C)=O)=C(C)N2c1ccccc1 (stereo unspecified)	6.4	0.74	4	0.0	5.9	-11%	0.2
Cc1ccc(S(=O)(=O)N2CCN(C(=O)CSc3nnnn3C)C2)cc1	6.4	0.79	1	1.6	-8.8	-4%	0.0
COc1cccc(C(NC(C)=O)c2ccc3cccnc3c2O)c1 (stereo unspecified)	·	·	4	-4.7	-3.5	·	0.7
CC(NC(=O)Cn1ccsc1=N)C12CC3CC(CC(C3)C1)C2 (stereo unspecified)	4.9	0.68	0	-3.2	-2.0	2%	0.1
CCc1ccc(-c2cc(C)no2)cc1S(=O)(=O)NCc1ccc(OC)c(OC)c1	-2.2	0.7	-5	2.5	-2.6	·	1.1
O=C1NC(=O)C2(COC(c3ccccc3Cl)OC2)S1 (stereo unspecified)	1.8	0.68	-8	2.0	0.1	-5%	-0.1
CC(NC(=O)c1ccco1)C(=O)N1CCN(c2cccc(Cl)c2)CC1 (stereo unspecified)	0.5	0.64	-1	-2.2	-4.2	·	0.7
CCNC(=S)NC1CC2CCCC(C1)N2Cc1ccco1 (stereo unspecified)	-0.8	0.69	12	1.4	-1.1	0%	0.1
Cc1ccc(C(C(=O)NC(C)(C)C)N(CC2CCCO2)C(=O)CCC(=O)Nc2ccccn2)cc1 (stereo unspecified)	-0.1	0.64	-11	1.9	22*	·	0.5
CCOC(=O)[C@H]1[C@H]2COc3ccc(Cl)cc3[C@@H]2N2C(=O)c3cc(F)ccc3NC(=O)[C@@]12C	4.9	·	8	-5.9	6.8	·	-0.6
C=CCC[C@H](Cc1ccc(F)cc1)C(=O)OC[C@@H](C)NC(=O)[C@H](CC=C)CC(=O)NCCO	-0.3	·	6	4.0	2.0	·	-0.2
CCCCCSc1nncc(=O)[nH]1	0.3	0.59	15	2.8	3.6	-1%	1.4
O=S(=O)(c1ccc(NCCOCCO)nc1)N1CCCCC1	-2.2	0.66	-1	-2.1	-0.5	2%	0.8
CC(OC(=O)Cc1c(F)cccc1Cl)C(=O)NC1CCCCC1C (stereo unspecified)	1.2	0.7	8	-1.1	-0.5	-5%	-0.5
Cc1cc(NC(=O)c2cccnc2)ccc1NC(=O)c1cc2ccccc2o1	i	0.68	-2	-1.2	-2.6	·	1.0
C/C(=N\Nc1ccccn1)c1ccc(C#N)cc1	·	·	-19	-2.0	-3.7	4%	0.1
CCOC(=O)C1(C)Oc2ccccc2C(C(=O)OC)=C1C(=O)OC (stereo unspecified)	-0.3	0.69	2	1.2	·	·	·
NS(=O)(=O)c1ccc(CNC(=O)c2cc(-c3cccnc3)nc3ccccc23)cc1	-3.8	0.65	-5	2.0	-0.8	·	0.8
COC(=O)c1c(NC(=O)/C=C/C(=O)O)sc(Cc2ccccc2)c1C	8.5	0.63	5	2.0	9.1	6%	1.0
CC(C)CCNC(=O)COc1ccc2c(c1)C(=O)CC(C)(C)O2	i	0.67	8	4.0	-0.9	-1%	0.0
COc1ccc(NC(=S)Nc2ccc3snnc3c2)cc1	0.2	0.67	4	0.5	-3.8	-9%	0.4
COCCCNC(=S)N1CCC(NC(=O)Nc2ccc(C)cc2)CC1	6.0	0.72	2	1.7	1.2	16%	0.3
O=C1CC2(CCN(C(=O)c3cccc(Br)c3)CC2)Oc2ccccc21	-25	0.73	0	4.3	19*	·	1.1
CCOc1ccc(CCNC(=O)C2=C(C)C(=O)OC23CCC(C)CC3)cc1 (stereo unspecified)	0.5	0.8	-8	-0.1	0.6	-5%	0.2
C=CCn1c(N)c(C(=O)NCc2cccnc2)sc1=S	8.4	0.64	9	2.1	1.7	1%	0.4
CC(=O)c1cccc(NS(=O)(=O)c2cc3c(cc2C)N(C(C)=O)CCO3)c1	4.8	0.67	-5	1.6	0.9	·	-0.5
Cn1nc(C(F)(F)F)c(/C=N/OC(=O)c2ccccc2Cl)c1SCc1ccc(Cl)cc1	·	·	5	-1.2	1.5	-3%	-0.9
O=C(CCc1nc(-c2ccccc2)no1)NCC1CCCO1 (stereo unspecified)	2.6	0.71	10	1.3	2.8	1%	0.0
CCOc1ccccc1NC(=O)C(NC(=O)C1CCC(C)CC1)C(C)C (stereo unspecified)	1.7	0.68	4	0.7	-4.7	-4%	2.4
CCCC(/C=C/c1ccc(OC(C)=O)cc1)=C1/c2ccccc2C(=O)N1c1ccccc1	2.4	·	-1	3.7	-4.8	·	0.6
CCCCSc1nc(C)c(C(C)=O)cc1C#N	-0.3	0.71	-1	2.3	0.6	4%	-0.7
COc1cc(CN2CCN(Cc3ccc(C(F)(F)F)cc3)CC2)cc(OC)c1OC	1.5	0.68	-5	1.4	7.2	·	1.7
CC(=O)c1cccc(NC(=O)c2cc(-c3ccc(F)cc3)on2)c1	0.9	0.61	-5	4.2	3.6	?	0.5
COc1cc(/C=C2\SC(=S)N(N3CCOCC3)C2=O)cc(OC)c1OC	5.5	0.71	-2	5.2	1.6	·	0.5
O=S(=O)(Oc1ccccc1/C=N/n1cnnc1)c1ccccc1	·	·	0	0.9	-0.7	-6%	-0.3
COC(=O)c1c(NC(=O)C(=O)N2CCCCC2)sc2c1CC(C)(C)OC2	3.6	0.7	-4	-1.5	-0.8	-2%	1.9
NC(=O)C1CCN(C(=O)Cc2ccc([N+](=O)[O-])cc2)CC1	3.8	0.73	3	-1.8	-0.4	?	-0.5
Cc1cc(O)c(-c2cc(C(=O)Nc3cccnc3)[nH]n2)cc1C	3.3	0.71	-6	-4.3	-4.1	-5%	-4.4
O=C(Nc1cccnc1Cl)c1cc(-c2ccccc2O)on1	3.7	0.7	31	3.0	-2.9	·	-3.9
Cc1ccc(COC(=O)CCN=C2NS(=O)(=O)c3ccccc32)cc1	4.2	0.7	5	1.4	1.1	-3%	-0.3
COc1ccc(-c2nc(C)ncc2-c2csc(C)n2)c(O)c1	4.4	0.71	-2	1.5	0.0	1%	-0.4

3 compounds out of the list above, arranged by the number in UCH37 inh, rising:
| mol | UCH37 inh |
| --- | --- |
| CCCC(/C=C/c1ccc(OC(C)=O)cc1)=C1/c2ccccc2C(=O)N1c1ccccc1 | 2.4 |
| Cc1cc(O)c(-c2cc(C(=O)Nc3cccnc3)[nH]n2)cc1C | 3.3 |
| COC(=O)c1c(NC(=O)C(=O)N2CCCCC2)sc2c1CC(C)(C)OC2 | 3.6 |

Next section
SMILES	UCH37 inh	Ecoli growth	Beta2AR agonist	HNF4A DNA FP	LANA-H2A inh	Vif TR-FRET	Bfl-1 A1 inh
COc1cc(/C=N/NC(=O)COc2c(C)cc([N+](=O)[O-])cc2C)ccc1OC(=O)c1ccccc1Br	·	·	0	0.5	-5.2	4%	-0.6
CCCOc1cc(C)c(S(=O)(=O)n2ccc(C)n2)cc1C	4.0	0.73	0	1.5	0.0	3%	-0.5
CS(=O)(=O)N(CC(=O)N1CCN(c2ccccc2)CC1)C1CCCCC1	0.8	0.73	-5	-0.5	1.3	17%	1.8
COc1ccc(/C=N/NC(=O)c2ccoc2C)cc1OC	·	·	-2	-1.3	-0.6	-2%	-2.7
O=C(Nc1ccccc1)C1CC(=O)N(Cc2ccccc2)C1 (stereo unspecified)	-0.2	0.7	-5	1.9	2.0	·	0.1
Cc1ccc(NC(=O)c2ccc(Cl)c(S(=O)(=O)Nc3c(C)n(C)n(-c4ccccc4)c3=O)c2)cc1Cl	-2.1	0.67	7	-6.2	·	5%	·
CCC(C)NC(=O)CCc1c(C)nc2c(c(C)nn2-c2ccccc2)c1C (stereo unspecified)	-28	0.64	6	2.9	-5.6	-8%	0.1
O=C(NC1CCCCC1)C1CCC(=O)N(Cc2cccc(C(F)(F)F)c2)C1 (stereo unspecified)	0.2	0.73	1	-0.1	3.1	·	0.5
CC(C)(C)c1ccc(OC(=O)Nc2ccc(O)c(C(=O)O)c2)cc1	-64	0.68	-5	-1.2	3.4	12%	-1.5
Cc1c(Cl)cnc(NC(=O)COC(=O)c2ccc([N+](=O)[O-])s2)c1Cl	13	0.66	-1	-8.4	3.5	12%	-0.3
CC(=O)N1CCN(C23CC4CC(CC(C4)C2)C3)CC1	1.4	0.68	-4	4.1	5.5	·	0.1
COc1ccc(C)cc1NCc1cccc(OC)c1OC	3.8	0.71	6	0.0	-3.4	31%	-0.4

One compound at a time (already shown).
Record of COc1ccc(C)cc1NCc1cccc(OC)c1OC = UCH37 inh = 3.8; Ecoli growth = 0.71; Beta2AR agonist = 6; HNF4A DNA FP = 0.0; LANA-H2A inh = -3.4; Vif TR-FRET = 31%; Bfl-1 A1 inh = -0.4
Record of CC(=O)N1CCN(C23CC4CC(CC(C4)C2)C3)CC1 = UCH37 inh = 1.4; Ecoli growth = 0.68; Beta2AR agonist = -4; HNF4A DNA FP = 4.1; LANA-H2A inh = 5.5; Vif TR-FRET = ·; Bfl-1 A1 inh = 0.1

Further structures follow:
SMILES	UCH37 inh	Ecoli growth	Beta2AR agonist	HNF4A DNA FP	LANA-H2A inh	Vif TR-FRET	Bfl-1 A1 inh
Cc1ccnc(NC(=O)CCC(=O)N(CC(=O)NC2CCCCC2)Cc2cccs2)c1	4.7	0.69	-3	-0.5	-3.4	·	-0.1
Cc1ccc(N(CC(O)CON=C2c3ccccc3-c3ccccc32)S(C)(=O)=O)cc1 (stereo unspecified)	-0.2	0.71	1	-0.6	-0.9	0%	-0.8
Cc1csc(=O)n1CCC(=O)OCC(=O)c1ccc(Br)cc1	3.1	0.68	7	7.1	-2.5	-3%	0.2
CC(=O)c1ccc(NC(=O)c2ccc(-n3cncn3)c([N+](=O)[O-])c2)cc1	5.1	0.7	12	1.2	-1.2	·	-0.6
O=C(CN1C(=O)CSc2ccc(S(=O)(=O)N3CCOCC3)cc21)N1CCCCC1	1.9	0.66	4	2.4	-4.3	·	-0.2
CCOC(=O)C(NC(=O)c1ccccc1)(N1CCOCC1)C(F)(F)F (stereo unspecified)	-3.2	0.7	5	0.7	6.7	0%	0.4
COc1ccc2cc(C3(C)NC(=O)NC3=O)ccc2c1 (stereo unspecified)	1.1	0.72	1	-1.3	9.1	-2%	0.4
Cc1ccc(C(=O)N2CCN(c3ncnc4c(-c5ccccc5)nsc34)CC2)cc1	-4.0	0.68	·	·	2.0	24%	-0.6
